Mtb growth: Mycobacterium tuberculosis H37Rv growth inhibition, cell based, confirmatory dose response (AID 1949) | most inactive calls were filed without a number and no value below 0 was filed | 100,000 compounds, 1.6% hits | one-dose inhibition, % at 10 µg/mL; IC50 in µg/mL for titrated hits | M. tuberculosis H37Rv growth inhibition;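 active means confirmed in a dose series; inconclusive means about 50% or more but not retested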;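 further: bacteria grown 7 days with compound before Alamar blue readout; 0% = untreated bacteria and 100% = reference antibiotic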
Numbers without * were called inactive; i = inactive; ? = inconclusive.

SMILES	Mtb growth
COc1cccc(NC(=O)C2CCN(S(=O)(=O)c3ccc(Cl)cc3)CC2)c1	i
Cc1ccc(C)c(NS(=O)(=O)c2ccc3[nH]c(=O)oc3c2)c1	i
COc1cc(C(=O)Nc2c(C)cc(O)cc2C)cc(OC)c1OC	i
COC(=O)COc1ccc(NC(=O)c2ccccc2Br)cc1	1.2µg/mL*
N#C/C(=C\c1ccccc1Br)c1nc2ccccc2c(=O)[nH]1	i
O=C1c2ccccc2C(=O)N1OS(=O)(=O)c1cccc([N+](=O)[O-])c1	i
O=C1N(c2ccccc2)C2CS(=O)(=O)CC2N1c1ccccc1Cl (stereo not drawn)	i
O=C(O)CCN=C1CCCc2ccccc2N1	i
CC(=O)N(C)c1ccc(NC(=O)COc2cc(C)ccc2C)cc1	4%
COC(=O)CSc1nnc(-c2sc3ccccc3c2Cl)n1-c1ccccc1	39%
CCc1cccc(CC)c1NC(=O)c1cc(C)on1	i
O=c1c2ccccc2nc(SCc2ccc(F)cc2Cl)n1CC1CCCO1 (stereo not drawn)	5%
CC1CCN(S(=O)(=O)c2ccc(C(=O)N3CCN(c4ccc(F)cc4)CC3)cc2)CC1	i
CSc1nc(C)cc(Oc2ccc(OCCOc3ccc(Br)cc3)nn2)n1	18%
O=C(O)CCC(=O)N1N=C(c2cccs2)CC1c1ccco1 (stereo not drawn)	i
CS(=O)(=O)N(CC(=O)NCc1ccc(Cl)cc1)c1ccc(I)cc1	i
COc1ccc(-c2cc(C(=O)NNC(=S)NCc3ccco3)c3cc(C)ccc3n2)cc1OC	i
CCOC(=O)c1ccc(NC(=O)CSc2nnc(-c3ccccc3)n2C2CCCCC2)cc1	i
O=C(c1ccco1)N1CCC(N2CCCC2)CC1	i
COCCn1c(C)cc(C(=O)CSc2nnnn2-c2ccccc2)c1C	i
CCCc1nnc(NC(=O)C(C)Oc2ccc(OC)cc2)s1 (stereo not drawn)	i
CC(=O)Oc1ccc(C(=O)Nc2cc([N+](=O)[O-])ccc2C)cc1	i
Cc1ccccc1N1CCN(C(=S)c2ccc(OCc3ccccc3)cc2)CC1	7%
CC1=C(C(=O)N2CCCCC2)C(c2cccs2)C2=C(CCCC2=O)N1 (stereo not drawn)	i
CSc1ccc(C2C(C(=O)Nc3ccccc3C(F)(F)F)=C(C)NC3=C2C(=O)CCC3)cc1 (stereo not drawn)	0%

The listing continues:
SMILES	Mtb growth
CCc1cc2c(C)cc(=O)oc2cc1OCc1ccc(OC)cc1	7%
S=C(NCc1ccncc1)Nc1ccccc1	i
CCC(Oc1ccccc1)C(=O)O/N=C(\N)c1ccc(Br)cc1 (stereo not drawn)	i
CCc1ccc(C(=O)NC(=S)Nc2c(C)ccc3nsnc23)cc1	2%
Cc1onc(-c2ccccc2)c1C(=O)Nc1ccon1	i
COc1ccc(N(C(=O)c2ccccc2)S(=O)(=O)c2ccc(C)cc2)cc1	i
O=C(Nc1ccc2c(c1)OCCO2)C1CCN(S(=O)(=O)c2ccc(F)cc2)CC1	i
COc1ccc([N+](=O)[O-])cc1NC(=O)Cc1cccs1	i
OCCNCc1cc(Cl)ccc1OCc1ccc(Cl)cc1Cl	49%
CCC(=O)Nc1ccc(Cl)c(NC(=O)c2cccc(OC)c2)c1	i
NC(=O)c1ccccc1NC(=S)NC(=O)c1cccc(Cl)c1	i
CC(C)(C)OC(=O)NNC(=O)Nc1ccccc1C(F)(F)F	i
CC(C)(C)NC(=O)c1ccc2c(c1)C(=O)N(Cc1ccccc1)C2=O	2%
C=CCN1C(=O)C(CC(=O)Nc2ccc(Cl)cc2)NC1=S (stereo not drawn)	i
Cc1cccc(C)c1NC(=O)CSCc1cccc(CSCC(=O)Nc2c(C)cccc2C)n1	i
O=C(O)c1ccc(Sc2nnc(-c3cccc(Br)c3)o2)c([N+](=O)[O-])c1	i
COc1ccc(C(=O)Nc2cc(Cl)ccc2Cl)c(OC)c1	2%
CCC(=O)Nc1cccc(NC(=S)NC(=O)c2cc(OC)c(OC)c(OC)c2)c1	i
COCCCN1C(=O)c2ccc(C(=O)Oc3ccc4c(=O)c(-c5ccccc5OC)c(C(F)(F)F)oc4c3)cc2C1=O	5%
COc1cc2c(cc1OC)C(=S)NC(C)(C)C2	3%
Cc1cc(C)c(S(=O)(=O)N2CCOCC2)cc1N(C)S(=O)(=O)c1ccccc1	i
O=C(O)c1ccccc1-c1ccccc1C(=O)Nc1ccccc1I	i
COc1cc2c3c(c1)C1(C(=O)N3C(C)(C)C=C2C)C(C#N)=C(N)Oc2c1c(C)nn2-c1ccccc1 (stereo not drawn)	i
Cc1ccc(S(=O)(=O)Nc2ccc(NC(=S)NCc3ccco3)cc2)cc1	i
O=C(Cc1n[nH]c(=O)[nH]c1=O)N/N=C\c1ccc(Br)cc1	i

The results go on.
SMILES	Mtb growth
COc1cc(OC)cc(C(=O)N2CCC(C(=O)Nc3ccc(I)cc3)CC2)c1	i
Cn1nc([N+](=O)[O-])nc1Sc1nnnn1-c1cccc(C(=O)O)c1	i
CCOc1ccc(NS(=O)(=O)N2CCCCCC2)cc1	2%
CCOC(=O)C1=C(c2ccccc2)NC(=S)NC1c1ccc(Br)cc1 (stereo not drawn)	9%
COc1ccc2cc(S(=O)(=O)NCc3cccnc3)ccc2c1	i
COc1ccccc1NC(=O)C1=C(C)Nc2nnnn2C1c1ccccn1 (stereo not drawn)	i
Cc1ccccc1NC(=O)Cn1nnc(-c2ccccc2C)n1	6%
COc1ccccc1N(CC(=O)Nc1cccc([N+](=O)[O-])c1)S(=O)(=O)c1ccccc1	i
O=C(CSc1ccc(Cl)cc1)Nc1ccc(F)c(F)c1F	23%
OC1C=C(c2ccccc2)Sc2nc3ccccc3n21 (stereo not drawn)	1%
COc1ccc(Br)cc1S(=O)(=O)Nc1ccc(Cl)cn1	i
Nc1nc(SCc2nnc(Nc3ccccc3)s2)nc2sc3c(c12)CCC3	7%
Cc1cccc(C)c1OCC(=O)Nc1ccc(C#N)cc1	i
Cc1c(Cl)cccc1NC(=O)C1(C)CC2c3ccccc3C1c1ccccc12 (stereo not drawn)	i
COC(=O)c1ccccc1NC(=O)CN(c1ccc(OC)c(Cl)c1)S(C)(=O)=O	i
O=C(COc1ccccc1)N1CCN(c2ccc([N+](=O)[O-])c(NCc3ccccc3)c2)CC1	10%
NC(=O)C1(N2CCCCC2)CCN(C(=S)Nc2ccc(F)c(Cl)c2)CC1	i
CCC(=O)NNC(=O)c1cc(=O)[nH]c2ccccc12	i
CCN1C(=O)c2ccc(-c3nc4cc(Cl)ccc4o3)cc2C1=O	i
N#Cc1c(NC(=O)CSc2nc(N)cc(=O)[nH]2)sc2c1CCCC2	i
NC(=O)CSc1nnc(-c2cccs2)n1-c1ccccc1	i
COc1ccc(NC(=O)C(=O)NCc2cccnc2)cc1OC	i
Cc1ccc(-c2nc3cc(C(C)C)ccc3o2)cc1NC(=O)c1ccc(F)cc1	7%
CCCCC(=O)Nc1ccc(C(=O)Nc2ccccc2F)cc1	2%
CSc1cccc(NC(=O)c2ccc(CN3CCc4ccccc4C3)cc2)c1	i

The results go on.
SMILES	Mtb growth
Cc1cc(=O)oc2cc(OCCc3ccccc3)ccc12	?
CC1CN(C(=O)c2ccccc2Oc2ccccc2)CC(C)O1 (stereo not drawn)	i
O=C(NCc1ccccc1)c1cccnc1NCc1ccccc1	4%
COc1ccc(C(C)NC(=O)c2cc(-c3cc(OC)ccc3OC)nc3ccccc23)cc1 (stereo not drawn)	25%
O=C1NC(=O)C(CCc2ccccn2)(CCc2ccccn2)C(=O)N1Cc1ccccc1	i
CN1CCN(C2CCN(S(=O)(=O)c3ccccc3)CC2)CC1	i
COc1cc(-c2cn[nH]c2N)cc(OC)c1OC	i
CCOc1cc(C=O)ccc1OCc1ccc(C(=O)O)o1	i
O=C1c2cccc3cccc(c23)C(=O)N1Cc1cccnc1	i
Cc1ccc(C(C)(C)C)cc1S(=O)(=O)NC(=O)c1ccccc1	i
CC(C)NC(=O)CC(c1ccccc1)c1cc(Br)ccc1O (stereo not drawn)	i
Cc1ccc(C)c(C(NC(=O)c2ccccc2Cl)c2ccccc2)c1 (stereo not drawn)	i
COc1ccccc1NC(=O)C(=O)NCC1COc2ccccc2O1 (stereo not drawn)	i
COC(=O)COc1ccc(S(=O)(=O)N2CCCCCC2)cc1C	i
O=C(CCC1COc2ccccc2O1)Nc1nncs1 (stereo not drawn)	i
COC(=O)c1ccc(NC(=O)c2ccc(N(Cc3ccccc3C)S(C)(=O)=O)cc2)cc1	5%
COc1cccc(C(=O)Nc2ccccc2Br)c1OC	16%
Cc1cccc(-n2c(/C=C/c3cccc4ccccc34)nc3ccccc3c2=O)c1	6%
COc1cc(NC(=O)c2ccc(COc3ccccc3Br)o2)cc(OC)c1OC	43%
O=C1c2ccccc2-c2nnc(-c3cccs3)cc21	2%
CCOC(=O)c1ccc(CNC(=O)CSc2nc(N)c3c4c(sc3n2)CCCC4)cc1	3%
CCOc1ccc2cc(-c3ccccc3)c(=O)oc2c1	i
CS(=O)(=O)N(CC(=O)Nc1ccccc1-c1ccccc1)c1ccc(F)c(Cl)c1	3%
OCc1cc(Br)ccc1OCc1ccc(F)cc1	i
COc1ccc(OCCCC(=O)Nc2cc(C(F)(F)F)ccc2Cl)cc1	i

(listing goes on)
SMILES	Mtb growth
Cc1nc2ccc(NC(=O)N3CC4(C)CC3CC(C)(C)C4)cc2s1 (stereo not drawn)	i
Cc1ccccc1C(=O)Nc1ccc(OCC(=O)c2ccc(F)cc2)cc1	14%
CCOc1ccccc1N1CCN(C(=O)C2CCN(CC3CCCCC3)CC2)CC1	i
CCNc1nc(NCC)n2c(=S)[nH]nc2n1	11%
CCOC(=O)c1sc(N2C(=O)C(O)=C(C(=O)c3cccs3)C2c2ccccc2F)nc1C (stereo not drawn)	i
O=C(NNC(=O)c1ccc2c(c1)OCO2)NC12CC3CC(CC(C3)C1)C2	i
Cc1ccc2nc(-c3cccc(NC(=O)c4cccs4)c3)[nH]c2c1	7.1µg/mL*
Cc1ccc(-c2nn3c(C)nnc3s2)cc1NC(=O)CSc1ccc(Cl)cc1	i
Cc1ccc(C)c(C(=O)C(=O)c2ccccc2)c1	2%
CC(C)OC(=O)c1ccc(COC(=O)c2cccc(-c3nnc(-c4ccccc4)o3)c2)cc1	i
Ic1ccc2ncnc(NCCCN3CCOCC3)c2c1	i
CCc1cccc(C)c1NC(=O)CSCc1ccccc1	i
Cc1sc2nc3c4ccccc4c4nnnn4n3c(=O)c2c1C	i
Cc1occc1C(=O)Nc1sc2c(c1C(N)=O)CCCC2	i
COc1ccc(C)cc1N(CC(=O)Nc1ccc(F)cc1F)S(=O)(=O)c1ccc(C)cc1	i
Cc1ccc(-c2cc(C(=O)Nc3sc(C)c(C)c3C(N)=O)c3ccccc3n2)s1	i
O=C1CCCc2oc3ccc(NS(=O)(=O)c4ccccc4)cc3c21	i
O=C(Nc1c(F)cccc1F)C1CN(S(=O)(=O)c2ccccc2)CCN1S(=O)(=O)c1ccccc1 (stereo not drawn)	i
Cc1c(C(=O)OC(C)C)sc(NC(=O)c2cc(Br)ccc2Cl)c1C#N	i
COc1ccc(C2=CC(c3ccc(Br)o3)n3ncnc3N2)cc1 (stereo not drawn)	0%
COc1ccc(S(=O)(=O)N(CC(=O)Nc2ccccc2C(=O)NCc2ccco2)c2ccc(C)cc2)cc1OC	i
O=C(Cc1ccc(Cl)cc1)NC(=S)Nc1ccc(S(=O)(=O)Nc2nccs2)cc1	i
Cc1ccc(F)c(NC(=O)c2ccc(Cn3cc(Cl)cn3)cc2)c1	?
COc1ccc(NC(=O)COc2cc(C)c(Br)cc2C(C)C)cc1	11%
O=C(c1ccccc1)N1CCN(c2nc(-c3ccccc3)cs2)CC1	i

More structures
SMILES	Mtb growth
COc1ccc(C(=O)NC(N)=NCCc2c[nH]c3ccccc23)cc1	i
CCOC(=O)c1sc(NC(=O)c2cccc(Cl)c2Cl)c(C#N)c1C	i
CN(C)c1ccc(NC(=O)c2ccc(Cn3cc(Cl)cn3)o2)cc1	13%
O=c1c2cc(I)ccc2nc(/C=C/c2cccs2)n1-c1ccccc1Cl	i
Clc1ccc(OCc2cn3ccccc3n2)cc1	20%
Cc1nn2c(-c3cccc(NC(=O)c4ccco4)c3)nnc2c2ccccc12	5%
CCC(CC)NCc1cc(OC)c(OC)cc1OC	1%
CCOc1ccc(C(=O)NCC2(c3ccccc3)CCOCC2)cc1	i
COC(=O)C1=C(C)N(C(C)c2ccccc2)C(=O)C1 (stereo not drawn)	i

Bioassay records from PubChem BioAssay.

Not all compounds are listed; rates above refer to the full screens.
